# Screening data (PubChem)
# NPYLR7 ag: agonists of mosquito NPYLR7 receptor, primary screen, cell-based, Aedes aegypti, calcium fluorescence, mosquito biting behavior; HEK293T NPYLR7/Galpha15, GCaMP6s calcium fluorescence; activation, % at 10 µM; 270,000 tested, 0.15% active; AID 1259423, 2018; in the data active = activation above about 40%;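 note: 0% = vehicle and 100% = reference agonist at the receptor; some compounds past the cut are filed as inactive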
# NPYLR7 ag max-min: further read-out of NPYLR7 ag, marked with its call; activation, %; measured here: Max-Min RFU normalised activation; some inactives read as strong as hits;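 span of the calcium signal over five minutes; 0% = vehicle and 100% = native peptide agonist; compound fluorescence can raise it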
# Starred values were filed as active, the others as inactive.
structure	NPYLR7 ag	NPYLR7 ag max-min
CC(=O)/C(=N/Nc1ccc(C)cc1)N1CCOCC1	3	3
O=C(Nc1ccccc1)c1sc2nncc(=O)n2c1C(=O)O	-6	2
CCOC(=O)[C@H]1[C@@H](O)C(=O)N(C)C12CCN(C(=O)CC(C)C)CC2	-1	11
COc1ccccc1OCc1cc(C(=O)NC[C@H]2C[C@H]3C=C[C@H]2C32CC2)n[nH]1	12	6
CC1CN(c2cc(Oc3cccc(F)c3)ncn2)CCN1C(=O)C(C)(C)CCl (stereo not drawn)	12	13
CN(Cc1ccccc1)c1ncccc1CNC(=O)C1CCOCC1	1	-2
O=C(/C=C/c1ccccc1)N1CCC(c2nc(-c3ccc(F)c(F)c3)no2)CC1	8	1
CCc1noc(C)c1C(=O)N1CCCC(N2CCN(c3cccc(Cl)c3)CC2)C1 (stereo not drawn)	-1	-2
CCOC(=O)CC(=O)CSc1ccc2nnc(-c3ccc(C)cc3)n2n1	13	14
CN(CCO)c1ncc(F)c(N2CCCC2)n1	-5	-7
Cc1noc(C)c1CC1(C)C(=O)Nc2cc(-c3ccc(F)cc3F)ccc21 (stereo not drawn)	-1	8
O=C(Cn1nnc(-c2ccccc2)n1)NC1CCCCC1	6	7
CN1CCN(C(=O)NC2CCCCC2)CC1	-5	-9
CCNC(=O)C(C)Sc1nnc(Nc2ccccc2CC)s1 (stereo not drawn)	-1	12
[O-][n+]1cccc(CO)c1	1	-4
CC(C)OC(=O)CC(NS(=O)(=O)c1ccc(Cl)s1)c1ccccc1 (stereo not drawn)	1	0
CC(=O)Nc1cccc(C(=O)N2CC=C(c3ccccc3)CC2)c1	-22	-23
CC1CCC(C)N1C1CCCN(C(=O)Nc2ccccc2)C1 (stereo not drawn)	3	2
O=C(c1cnc[nH]1)N1CCOc2c(O)cc(-c3csc4ccccc34)cc2C1	-2	17
O=C(NCCO)NC1CCS(=O)(=O)C1 (stereo not drawn)	1	0
COC(=O)c1ccc(C(=O)N2CCC(n3c(=O)oc4ccc(Cl)cc43)CC2)cc1	16	18
Cc1nnc(SCC(=O)c2ccccc2)c2c1cnn2-c1ccc(F)cc1	-7	-17
CCNC(=O)[C@H]1CC[C@@](C)(C(=O)NCCc2cnc[nH]2)C1(C)C	1	-2
O=C(Nc1ccc(SCCN2CCCCC2)nn1)C1CC1	1	1
COc1cccc(C(=O)N2CCC[C@@H]2C(=O)NCCNC(=O)c2ccc(F)cc2)c1	-18	-14

# Look-ups from above:
# [O-][n+]1cccc(CO)c1 – NPYLR7 ag max-min: -4
# CN(Cc1ccccc1)c1ncccc1CNC(=O)C1CCOCC1 – NPYLR7 ag max-min: -2
# CC(=O)Nc1cccc(C(=O)N2CC=C(c3ccccc3)CC2)c1 – NPYLR7 ag max-min: -23

# Additional structures.
structure	NPYLR7 ag	NPYLR7 ag max-min
N#Cc1cccnc1NCC1(c2ccccc2)CCOCC1	-5	-4
COc1ccc(S(=O)(=O)Oc2cccc(CN(CC3CCCO3)C(=O)c3cccc(F)c3)c2)cc1 (stereo not drawn)	24	18
CC(C)n1cnnc1CCNC(=O)c1ccc2cccnc2c1O	7	6
Cc1ccc(NC(=O)Cn2nc(C3CCN(S(C)(=O)=O)CC3)n(C)c2=O)cc1Cl	-4	3
CCOC(=O)c1c(C)[nH]c(C(=O)OC(C)C(=O)c2[nH]c(C)c(C(=O)OC)c2C)c1C (stereo not drawn)	2	1
Cn1cc(C(=O)OCC(=O)Nc2c(C#N)oc3ccccc23)cn1	14	15
Cc1cc(C)cc(-n2c(SCC(=O)Nc3nnc(C)s3)nc3c(c2=O)SCC3)c1	-3	-8
Cc1cnc(CNC(=O)CCN2Cc3ccccc3OC(c3ccccc3F)C2)cn1 (stereo not drawn)	16	3
Cc1nonc1CC(=O)N1CCCC(CO)(CCc2ccccc2)C1 (stereo not drawn)	3	0
COCCn1c(C)cc(O)c(C(=O)Nc2ccc(Cl)c(Cl)c2)c1=O	-2	-4
O=C(NCc1ccc2sccc2c1)C1CCC(=O)N(CCc2ccc(Cl)cc2)C1 (stereo not drawn)	3	-2
COC(=O)c1ccc(N2C(=O)CC(Sc3ncccc3C(=O)O)C2=O)cc1 (stereo not drawn)	6	1
CCOC(=O)c1ccc(Nc2nc(-c3cc4cccc(OC)c4oc3=O)cs2)cc1	-6	-9
N#CCSc1nc2c(-c3ccccc3)c[nH]c2c(=O)n1Cc1ccccc1	0	-2
CC(C)(C)c1cc(NC(=O)C2(C)CCN2C(=O)C/C=C/c2ccccc2)no1 (stereo not drawn)	18	17
COc1ccc2c(c1)C(NC(=O)c1cc(=O)n(C)c(=O)n1C)CC(C)(C)O2 (stereo not drawn)	15	3
CCOC(=O)N1CCN(C(=O)c2ccc(N3CCC(NCCc4ccncc4)CC3)cc2)CC1	5	3
Cc1nnsc1CN(C)C(=O)C1CC(=O)N(c2cccc(O)c2)C1 (stereo not drawn)	7	6
CCOc1cn(C)c(C(=O)NCCc2ccccc2)cc1=O	-1	-1
Cc1cc2nc(C(=O)N3CCC4(CCCN(C)CC4)CC3)cc(C)n2n1	6	2
Cc1nc2c(cc(O)c3ccsc32)s1	3	6
COc1cccc(-c2ccccc2NC(=O)C2CCN(Cc3cc4ccccc4[nH]3)CC2)c1	0	-4
CCCc1nc2oc3ccccc3c(=O)c2c(=O)n1Cc1ccccc1	3	1
COc1ccccc1N1CCN(Cn2nc(C3COc4ccccc4O3)oc2=S)CC1 (stereo not drawn)	-5	-4
CCN1CCN(C(c2cccs2)C2Sc3nc(C)nn3C2=O)CC1 (stereo not drawn)	-4	-3
CC(C)(C)OC(=O)N1C(C(=O)NCCc2ccncc2)CSC1c1cccc(Br)c1 (stereo not drawn)	2	1
O=[N+]([O-])c1ccc(S(=O)(=O)NC2CC2)cc1	0	-3
CCCSc1ncccc1C(=O)N(Cc1cccc(Cl)c1)Cc1nc2cc(Cl)ccc2o1	-3	-2
Cc1cc(Nc2ccccc2)n2nc(C)c(-c3ccccc3)c2n1	-2	-4
Cc1[nH]cnc1-c1nccn1Cc1cn2ccsc2n1	24	13
Cc1nc(S(=O)(=O)NCCC(=O)NCc2ccc(C#N)cc2)cn1C	7	4
CCN=C1SC(CC(=O)Nc2cccc(C(F)(F)F)c2)C(=O)N1CC (stereo not drawn)	-10	-15
CCc1nn(-c2ccccc2)c(Oc2ccccc2F)c1CN(CCOC)CC(O)Cc1ccccc1 (stereo not drawn)	0	1
COc1ccc(NC(=O)CCC2CCN(C(=O)CCc3ccncc3)CC2)c(OC)c1	5	5
CC(C)[n+]1ccccc1CCc1ccccc1	-4	-8
COc1ccc(-c2cc(CC(=O)Nc3cccnc3)no2)cc1	12	11
NS(=O)(=O)N1CCN(c2nc(C=Cc3ccccc3)nc3sc4c(c23)CCCC4)CC1	0	30
CCc1noc(CNC(=O)CSCc2ccccc2Cl)n1	3	0
Cc1cc(C)n(-c2nc3ccccc3n3c(C)nnc23)n1	8	3
COCCNC(=O)Cn1nc2c(c1NC(=O)C13CC4CC(CC(C4)C1)C3)CSC2	-3	4
Cc1csc(=O)n1CC(=O)Nc1cccc2cccnc12	8	11
CC1(C)Cc2c(c(N3CCOCC3)nc3sc(C#N)c(N)c23)CO1	5	2
Cn1c(NCc2ccccc2F)nc2cnc(-c3cccc(Oc4ccccc4)c3)cc21	-16	-16
CC1CCCCN1C(=O)c1cc2cc([N+](=O)[O-])ccc2oc1=O (stereo not drawn)	0	6
CC(Oc1ccc2c(c1)OCO2)C(=O)NNC(=O)NC12CC3CC(CC(C3)C1)C2 (stereo not drawn)	-6	-4
CCN1CCC[C@H]1CNC(=O)c1c(OC)ccc(Br)c1OC	5	-8
COc1ccc(-n2ccnc(SCc3ccc(C)cc3)c2=O)cc1Cl	4	4
O=[N+]([O-])c1ccc(C=NNC(=S)Nc2ccc(Cl)cc2Cl)o1	14	9
COc1ccc(N2CCN(C(=O)c3cc(-c4ccccc4Cl)nn3-c3ccc(F)cc3)CC2)cc1	-1	6
CCC(C)N(Cc1ccc(OS(=O)(=O)c2ccc(OC)cc2)cc1)C(=O)c1cccs1 (stereo not drawn)	4	12

# Continuation.
structure	NPYLR7 ag	NPYLR7 ag max-min
Cc1cc(C)c(SCC(=O)NC2CCS(=O)(=O)C2)c(C)c1 (stereo not drawn)	15	10
COC[C@@]12CN(c3ccccn3)C[C@@H]1C(C)(C)COc1ccc(OC)cc12	3	11
Cc1cccnc1CNC(=O)CC(c1ccccc1)c1ccccc1F (stereo not drawn)	5	5
CCc1cn[nH]c1C1CCCN(C(=O)c2cccc3cccnc23)C1 (stereo not drawn)	0	5
CC(Cn1cncn1)NC(=O)CC1c2ccccc2CCc2ccccc21 (stereo not drawn)	1	-2
COc1cc(C2C3=C(CC(C)(C)CC3=O)OC(=N)C2C#N)ccc1OC(C)=O (stereo not drawn)	-4	-9
CC(C)S(=O)(=O)CCSc1ncccc1Cl	0	-3
O=C(Nc1ccc(OC(F)(F)F)cc1)c1cccn(OCc2cccc(Cl)c2)c1=O	15	14
Cc1cc(C)n2ncc(CN3CCC(c4[nH]ncc4-c4ccccc4)CC3)c2n1	5	4
CCCc1nc(N2CCN(C(=O)c3ccc(C(F)(F)F)cc3)CC2)c2c(-c3ccc4ccccc4c3)noc2n1	16	5
COCCCNC(=O)c1c(O)nc2scc(C)n2c1=O	-1	6
COC(=O)c1ccc(C(=O)NNc2nc3cc(C)cc(C)c3s2)cc1	4	-2
Cc1ccc(NC(=O)C2CCN(C(=O)C3CC3)CC2)c2cccnc12	1	0
COc1ccc(C(=O)NC23CC4CC(CC(C4)C2)C3)cc1OC1CCN(C(C)C)CC1	5	2
O=C(c1cccc(F)c1)N1CCC2(CC1)Nc1ccccc1C(=O)N2C1CCCC1	2	11
Cc1ccc2nc(NNC(=O)c3ccc(S(=O)(=O)N4CCc5ccccc5C4)cc3)sc2c1	3	-2
CC1(C)Cc2c(c(N3CCOCC3)nc3sc4c(Cl)nnnc4c23)CS1	-1	-1
Cc1nn(-c2ccc(C(=O)Nn3cn[nH]c3=S)cc2)c(C)c1Br	1	0
CCOc1ccccc1CN1CCNC(=O)C1CC(=O)NCc1ccncc1 (stereo not drawn)	28	20
Cc1sc2[nH]c(=S)n(CC(C)C)c(=O)c2c1C	7	2
CCCc1nc(N2CCCN(C(=O)Nc3cccc(OC)c3)CC2)c2c(-c3ccccc3)noc2n1	18	8
COc1ccc(-c2cc(C(=O)N3CCC(n4c(=O)[nH]c5ccccc54)CC3)n(-c3ccccc3Cl)n2)c(OC)c1	8	6
Cc1nc(CN(C)C(=O)c2sc(C(C)C)nc2C)cs1	-2	-3
CC(C)CNC(=O)c1cccc(NC(=O)CN2C(=O)c3ccccc3C2=O)c1	2	9
O=S(=O)(NC12CC3CC(CC(C3)C1)C2)c1ccc2c(c1)OCCO2	4	2

# Complete entries as entered above. Order of values: NPYLR7 ag, NPYLR7 ag max-min
# CCOc1ccccc1CN1CCNC(=O)C1CC(=O)NCc1ccncc1 (stereo not drawn) is entered as 28, 20
# Cc1cc(C)n2ncc(CN3CCC(c4[nH]ncc4-c4ccccc4)CC3)c2n1 is entered as 5, 4
# CC(C)S(=O)(=O)CCSc1ncccc1Cl is entered as 0, -3
# CCc1cn[nH]c1C1CCCN(C(=O)c2cccc3cccnc23)C1 (stereo not drawn) is entered as 0, 5

# In a second layout: results already given
# Order of results – NPYLR7 ag, NPYLR7 ag max-min
> CC(C)OC(=O)CC(NS(=O)(=O)c1ccc(Cl)s1)c1ccccc1 (stereo not drawn)
→ 1, 0
> CC(=O)Nc1cccc(C(=O)N2CC=C(c3ccccc3)CC2)c1
→ -22, -23
> CC1CCC(C)N1C1CCCN(C(=O)Nc2ccccc2)C1 (stereo not drawn)
→ 3, 2
> O=C(c1cnc[nH]1)N1CCOc2c(O)cc(-c3csc4ccccc34)cc2C1
→ -2, 17
> O=C(NCCO)NC1CCS(=O)(=O)C1 (stereo not drawn)
→ 1, 0

# Further compounds:
structure	NPYLR7 ag	NPYLR7 ag max-min
CN1CC(=O)N(CC(O)COc2c(Cl)cccc2Cl)C1=O (stereo not drawn)	6	1
CCOC(=O)c1ccc(NC(=O)CSc2cn(CC(=O)N3CCCCC3)c3ccccc23)cc1	-3	-7
CC(CNc1ccccc1)NC(=O)c1cc(C(C)C)n(C)n1 (stereo not drawn)	-1	-1
CCCCCCn1c(CN2CCOCC2)nc2c1c(=O)n(C)c(=O)n2C	-6	-8
CC1CCN(c2ccc(NC(=O)Nc3ccc(F)c(Cl)c3)cc2C(=O)NC(C)c2ccccc2)CC1 (stereo not drawn)	12	20
CCn1c(SC(C)C(=O)NC(=O)NC)nc2ccsc2c1=O (stereo not drawn)	-4	-5
CC1(C)CC(NC(=O)CC2C(=O)NCCN2Cc2cccnc2)CC(C)(C)N1 (stereo not drawn)	22	10
CCc1nn(Cc2occc2C(=O)OC)c(=O)c(C#N)c1CC	16	8
Cc1noc(C)c1C1CCCN1C1CCN(CCc2ccccc2)CC1 (stereo not drawn)	1	1
CCc1cc(Oc2ccccc2OC)nc(SCc2ccccc2C#N)n1	22	28
CCCCN(C)c1c(CC)nc2ccc(C(=O)NC3CCN(Cc4ccccc4)CC3)cn12	1	-11
COc1cccc(S(=O)(=O)N2CCN(CCCOC(c3ccc(Cl)cc3)c3ccc(Cl)cc3)CC2)c1	4	1
O=C(C1CCCN(c2ncnc3c2nc2n3CCCCC2)C1)N1CCN(C2CCCCC2)CC1 (stereo not drawn)	4	2
CC1(C(=O)Nc2cccc3cccnc23)CCN1C(=O)Cc1ccc(Cl)cc1Cl (stereo not drawn)	12	11
CCOc1ccc(C(=O)N2Cc3cnc(CC(C)C)nc3C2)o1	21	13

# These rows are one share of the data; rates above refer to the full screens.
